High-throughput results (PubChem BioAssay)
VDR inhibitor: inhibitors of human vitamin D receptor | VDR-SRC2-3 peptide fluorescence polarization, 2 h | Potency, µM, without a hit: max response, negative = inhibition, usual class: inhibitors | 0.93% of 400,000 active; active = well fitted inhibition curve with a large enough effect; inconclusive = small, poorly fitted or top-dose-only effect, or another doubt; inactive = no such curve, though single readings can be large or run the other way; also: series mostly up to about 120 µM
Target sequence (P11473 whole entry, looked up): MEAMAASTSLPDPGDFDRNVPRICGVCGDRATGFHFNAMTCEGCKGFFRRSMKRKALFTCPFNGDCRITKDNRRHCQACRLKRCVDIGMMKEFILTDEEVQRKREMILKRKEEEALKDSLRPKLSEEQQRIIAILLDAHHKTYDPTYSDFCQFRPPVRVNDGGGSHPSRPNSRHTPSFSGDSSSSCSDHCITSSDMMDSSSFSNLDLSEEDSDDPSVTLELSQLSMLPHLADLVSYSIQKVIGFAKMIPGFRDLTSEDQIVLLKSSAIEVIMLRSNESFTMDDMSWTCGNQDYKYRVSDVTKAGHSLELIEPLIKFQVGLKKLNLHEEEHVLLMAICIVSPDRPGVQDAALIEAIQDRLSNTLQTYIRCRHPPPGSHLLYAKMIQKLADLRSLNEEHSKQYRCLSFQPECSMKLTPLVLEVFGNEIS
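Compounds are added to VDR with labelled SRC2-3 coactivator peptide and held 2 h at room temperature. Inhibition of the VDR–peptide interaction is then read as a change in fluorescence polarization.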
* marks the source's active call; other numbers are inactive results; & = joins results of further samples. % is scaled to controls: 0 for no effect and ±100 for the full control effect; potency is read from the fitted curve at half-maximal effect. Not all compounds are listed; the hit share may differ from the screen's.

C/C(=N\NC(=O)OC(C)(C)C)c1ccccc1Br was read as VDR inhibitor 0.4%.
`COCC(=O)N(C)C1(c2nnnn2CCOC(=O)Nc2cccc3ccccc23)CCCC1` gave VDR inhibitor -2.2%.
Screening CC(C)CCn1c(O)c(N=Nc2ccccn2)c2ccccc21 returned VDR inhibitor -13.0%.
`CCCn1nc(NC(=O)C(C)C)c2cc3cc(OC)ccc3nc21` gave VDR inhibitor 25.5%.
For O=C(c1cc(Cl)cc(Cl)c1)N1CCC2CC1c1cc(-c3ccc4c(c3)OCO4)ccc12 (centres undefined) the results were VDR inhibitor -19.4%.
`COc1ccccc1NC(=O)C(C)OC(=O)CCSc1ccc(F)cc1` (centres undefined) gave VDR inhibitor -7.3%.
Screening CCn1cc(C(=O)N2CCN(c3ccc(OC)cc3)CC2)c(=O)c2cc(S(=O)(=O)N3CCOCC3)ccc21 returned VDR inhibitor -0.8%&7.3%.
CCOC(=O)c1nc(Nc2ccc(N3CCOCC3)cc2)c2ccccc2n1 was read as VDR inhibitor -1.4%.
CCN1C(=O)[C@H]2[C@@H](c3ccc(Cl)cc3)N3C(=O)CN(Cc4ccccc4)C(=O)[C@@]3(C)[C@H]2C1=O was read as VDR inhibitor -10.3%.
CCn1c2ccccc2c2cc(/C=N/NC(=O)c3ccccc3C)ccc21 was read as VDR inhibitor -12.7%.
`Nc1nc(=O)n(C2CCCCO2)cc1Br` (centres undefined) gave VDR inhibitor 10.1%.
COc1ccccc1Nc1nc(C)c(C(=O)Nc2ccccc2)s1 was read as VDR inhibitor -3.0%.
NC(=O)c1ccc(NC(=O)COC(=O)c2ccc([N+](=O)[O-])cc2)cc1 was read as VDR inhibitor 4.1%.
Screening NC(=O)C1CCN(C(=O)C(=O)c2cn(CC(=O)N3CCCC3)c3ccccc23)CC1 returned VDR inhibitor 0.2%.
Screening CCOc1cc(C2NN=C(c3ccccc3)S2)ccc1OCc1ccc(F)cc1 (centres undefined) returned VDR inhibitor -1.3%.
For COc1ccc(N(CC(=O)NCc2ccccc2OC)S(=O)(=O)c2ccccc2[N+](=O)[O-])c(OC)c1 the results were VDR inhibitor 1.9%.
For CCCCN(C)CCNC(=O)C1CCCN(S(=O)(=O)c2cccc3nsnc23)C1 (centres undefined) the results were VDR inhibitor 8.7%&-7.2%.
O=C(CSc1nnc(-c2ccncc2)n1Cc1ccccc1)Nc1nccs1 was read as VDR inhibitor -3.3%.
O=C(Nc1cc2c3c(c1)CC(=O)N3CCC2)c1cccc(F)c1 was read as VDR inhibitor -10.9%.
Screening O=c1[nH]c(C2CCN(S(=O)(=O)c3ccc4c(c3)OCCO4)CC2)nc2c1nnn2Cc1c(F)cccc1Cl returned VDR inhibitor -3.3%.

A draw from above in order of molar mass, low to high.
`Nc1nc(=O)n(C2CCCCO2)cc1Br` (centres undefined) gave VDR inhibitor 10.1%.
O=C(Nc1cc2c3c(c1)CC(=O)N3CCC2)c1cccc(F)c1 was read as VDR inhibitor -10.9%.
COc1ccccc1Nc1nc(C)c(C(=O)Nc2ccccc2)s1 was read as VDR inhibitor -3.0%.
NC(=O)c1ccc(NC(=O)COC(=O)c2ccc([N+](=O)[O-])cc2)cc1 was read as VDR inhibitor 4.1%.
CCn1c2ccccc2c2cc(/C=N/NC(=O)c3ccccc3C)ccc21 was read as VDR inhibitor -12.7%.
`COc1ccccc1NC(=O)C(C)OC(=O)CCSc1ccc(F)cc1` (centres undefined) gave VDR inhibitor -7.3%.
Screening CCOc1cc(C2NN=C(c3ccccc3)S2)ccc1OCc1ccc(F)cc1 (centres undefined) returned VDR inhibitor -1.3%.
Screening NC(=O)C1CCN(C(=O)C(=O)c2cn(CC(=O)N3CCCC3)c3ccccc23)CC1 returned VDR inhibitor 0.2%.
For CCCCN(C)CCNC(=O)C1CCCN(S(=O)(=O)c2cccc3nsnc23)C1 (centres undefined) the results were VDR inhibitor 8.7%&-7.2%.
CCN1C(=O)[C@H]2[C@@H](c3ccc(Cl)cc3)N3C(=O)CN(Cc4ccccc4)C(=O)[C@@]3(C)[C@H]2C1=O was read as VDR inhibitor -10.3%.
For COc1ccc(N(CC(=O)NCc2ccccc2OC)S(=O)(=O)c2ccccc2[N+](=O)[O-])c(OC)c1 the results were VDR inhibitor 1.9%.
Screening O=c1[nH]c(C2CCN(S(=O)(=O)c3ccc4c(c3)OCCO4)CC2)nc2c1nnn2Cc1c(F)cccc1Cl returned VDR inhibitor -3.3%.

(cont.)
Screening Fc1nc(F)c(F)c(NCCCNc2c(F)c(F)nc(F)c2F)c1F returned VDR inhibitor 0.8%.
`CCOC(=O)C1CCCN(CCC(=O)Nc2cc(OC)ccc2OC)C1` (centres undefined) gave VDR inhibitor -5.4%.
`CC1CCN(C(=S)c2ccc(N(C)C)cc2)CC1` gave VDR inhibitor -4.2%.
Screening Cc1cc(C(=O)Nc2ccccn2)no1 returned VDR inhibitor 6.1%.
Screening COc1ccc(C(=O)COC(=O)CCn2nnc(-c3cccs3)n2)cc1 returned VDR inhibitor -6.8%.
Screening COc1cc(/C=C2\SC(N3CCc4ccccc4C3)=NC2=O)cc(OC)c1OC returned VDR inhibitor inconclusive.
For O=C(NCc1ccc(F)cc1)C(=O)NCC1CCCN1S(=O)(=O)c1ccccc1 (centres undefined) the results were VDR inhibitor -4.0%.
`O=C1CCC(C(=O)N2CCCC(C(=O)c3ccc4c5c(cccc35)CC4)C2)=NN1` (centres undefined) gave VDR inhibitor 12.5%.
N#Cc1c(N)nc(SCC(=O)OCc2ccccc2)c(C#N)c1-c1ccco1 was read as VDR inhibitor 5.8%.
COc1ccc(-c2noc(CSc3nnc(-c4ccncc4)n3-c3ccc(C)c(C)c3)n2)cc1 was read as VDR inhibitor 11.4%.
For CCc1ccc(C2CC(c3ccc(C)cc3)n3nc(N)nc3N2)cc1 (centres undefined) the results were VDR inhibitor inconclusive.
Screening CCOC(=O)CC1=NS(=O)(=O)c2ccccc2N1 returned VDR inhibitor -6.4%.
`CCc1ccc2[nH]c3nc(N/N=C/c4ccc(O)cc4O)nnc3c2c1` gave VDR inhibitor -3.5%.
For COc1ccc(OC)c(NC(=O)CSc2ccc(-c3cccs3)nn2)c1 the results were VDR inhibitor 5.0%.
For COc1ccc(C2=NN(C(=O)c3cccs3)C(c3ccccc3O)C2)cc1 (centres undefined) the results were VDR inhibitor -2.8%.
CCOC(=O)C(C(=O)OCC)=C1OC(=O)c2ccccc21 was read as VDR inhibitor 10.5%.
Screening COc1cc(CC(=O)Nc2ccccc2N2CCCCC2)cc(OC)c1OC returned VDR inhibitor -0.1%.
`CCCN1Cc2cccc(C(=O)Nc3cc(C)cc(C)c3)c2C1=O` gave VDR inhibitor 4.6%.
CC(Nc1ncnc2ccccc12)c1ccccc1 (centres undefined) was read as VDR inhibitor -12.6%.
Screening Cc1ccc(SCCN2CCC(O)CCC2=O)cc1 (centres undefined) returned VDR inhibitor -22.8%.
For C/C(=C1\SC(N2CCOCC2)=NC1=O)c1ccccc1 the results were VDR inhibitor 2.7%.
`Cc1ccc(N2CC(c3nc4ccccc4n3C)CC2=O)cc1` (centres undefined) gave VDR inhibitor -1.6%.
`COC(=O)c1cc(NC(=O)c2sc3ccccc3c2Cl)cc(C(=O)OC)c1` gave VDR inhibitor -4.3%.
`Cn1cccc1/C=N/NC(=O)c1cc(-c2cccs2)nc2ccccc12` gave VDR inhibitor -6.2%.
Screening CNC(=O)c1cc2c(-c3ccccc3)nn(C)c2s1 returned VDR inhibitor 3.0%.
COc1ccc(C(C[N+](=O)[O-])n2nc(C)cc2C)cc1 (centres undefined) was read as VDR inhibitor inconclusive.
For O=C(c1cc2c(s1)CCCCC2)N1CCN(c2ncccn2)CC1 the results were VDR inhibitor -1.9%.
For COc1ccc(NC(=O)COC(=O)CC2CCCCC2)cc1 the results were VDR inhibitor 10.1%.
Cc1ccc(S(=O)(=O)c2c(COC(=O)c3cccc(Cl)c3)c(-c3ccccc3)nn2C)cc1 was read as VDR inhibitor -10.5%.
CCOc1cc(/C=C(\C#N)c2nc3ccccc3[nH]2)ccc1OC(C)C(=O)O (centres undefined) was read as VDR inhibitor -7.0%.
For CCCCN1CC(=O)N2[C@H]3c4ccc(OC)cc4OC[C@@H]3[C@H](C(=O)OCC)[C@]2(C)C1=O the results were VDR inhibitor -3.3%.
For COc1ccc(N2CCN(Cc3cc(OC)c(O)c([N+](=O)[O-])c3)CC2)cc1 the results were VDR inhibitor -12.3%.
CCOC(=O)N1CCN(C(=O)/C=C/c2ccc(C(C)(C)C)cc2)CC1 was read as VDR inhibitor 4.3%.
For O=[N+]([O-])c1cccnc1N1CCCCC1 the results were VDR inhibitor -17.6%.
Screening CCCOC(=O)c1ccc(NC(=O)Cc2csc(C)n2)cc1 returned VDR inhibitor -0.6%.
Cc1ccccc1NC(=S)NC(NC(=O)COc1ccccc1)C(Cl)(Cl)Cl (centres undefined) was read as VDR inhibitor -0.8%.
Screening CSC(=S)NN=C(C)c1cccc(C)n1 returned VDR inhibitor inconclusive.
For C/C=C/c1ccc(OCC(=O)OCC)c(OC)c1 the results were VDR inhibitor 21.2%.
NC(=O)c1ccc[n+](CC(=O)c2ccc(NC(=O)c3ccccc3)cc2)c1 was read as VDR inhibitor 13.1%.
CC(C)(C)C(=O)Nc1ccc2oc(-c3cc(F)c(F)cc3Cl)nc2c1 was read as VDR inhibitor 9.0%.
For O=C(O)c1ccccc1NS(=O)(=O)c1ccccc1C(F)(F)F the results were VDR inhibitor 9.3%.
For O=C(COc1cccc2ccccc12)N/N=C/c1ccco1 the results were VDR inhibitor 1.2%.
Screening CCOC(=O)c1ccc2nc(Nc3nc4ccc(F)cc4s3)sc2c1 returned VDR inhibitor -4.2%.
For CN(C(=O)c1cccc(C#N)c1)c1nnc(C2CCOC2)s1 (centres undefined) the results were VDR inhibitor -10.0%.
CCCn1nnc(NC(=O)c2ccccc2Br)n1 was read as VDR inhibitor 1.6%.
`CC(=O)c1ccc(NC(=O)C(Cc2ccccc2)NC(=O)c2ccco2)cc1` (centres undefined) gave VDR inhibitor -7.6%.
COc1ccc(-c2[nH]ncc2CNC(C)c2ccccc2Cl)cc1F (centres undefined) was read as VDR inhibitor 0.7%.
`CCCc1cc(=O)[nH]c(SCC(=O)c2cc(C)n(C3CC3)c2C)n1` gave VDR inhibitor -0.2%.
CCN(CC)CC(C)CNC(=O)CC(C(=O)N1CCc2ccccc21)n1ccnc1 (centres undefined) was read as VDR inhibitor 5.2%.
`O=C(Cc1ccc(Cl)cc1)NCC(c1cccs1)S(=O)(=O)c1ccc(F)cc1` (centres undefined) gave VDR inhibitor 6.4%.
CCc1ccccc1NC(=O)/C(=C/c1ccccc1)c1ccccc1 was read as VDR inhibitor 11.7%.
COc1ccc(CCN2CC(C(=O)NCc3c(C)n[nH]c3C)CCC2=O)cc1 (centres undefined) was read as VDR inhibitor 27.3%.
`Clc1ccc(Oc2cccc(/C=N/n3cnnc3)c2)cc1` gave VDR inhibitor 8.9%.
O=S(=O)(NCc1ccccc1Cl)c1ccc(N2CCCCS2(=O)=O)cc1 was read as VDR inhibitor -11.3%.
`Cc1ccc2nc(/C(C#N)=C\c3ccc([N+](=O)[O-])o3)[nH]c2c1` gave VDR inhibitor 21.6%.
For COc1ccc(-c2oc3cc(OC)ccc3c(=O)c2O)cc1 the results were VDR inhibitor -9.3%.
O=c1[nH]c(/C(Cl)=C/c2c(F)cccc2Cl)nc2cc(Cl)ccc12 was read as VDR inhibitor -9.6%.
O=C(CCCc1nc2ccccc2s1)NC(c1ccccc1)c1ccccc1 was read as VDR inhibitor -1.6%.
CCc1cccc(C)c1NC(=O)CNCc1ccccc1 was read as VDR inhibitor -11.9%.
`C=CCOC(=O)/C(=C/c1ccco1)NC(=O)/C=C/c1ccccc1` gave VDR inhibitor -16.2%.
For O=C(O)c1cccnc1SC1CC(=O)N(CCc2ccccc2)C1=O (centres undefined) the results were VDR inhibitor -0.1%.
`COc1cccc(C(C(=O)NC2CCCC2)N(Cc2cccnc2)C(=O)Cc2cccs2)c1` (centres undefined) gave VDR inhibitor -9.9%.
Screening Cc1cc(C)n2nc(C(=O)N/N=C/c3ccccc3Cl)nc2n1 returned VDR inhibitor -5.3%.
`COc1ccc(Cl)cc1NC(=O)CN1CCCC1` gave VDR inhibitor -13.4%.
Screening O=C(CCn1cnc2ccccc21)N/N=C/c1ccc(O)cc1 returned VDR inhibitor 1.2%.
Screening CCOc1cccc(CC(=O)NCc2ccc3c(c2)CCN3C(C)=O)c1OCC returned VDR inhibitor 20.8%.
`COc1ccccc1C(=O)NC(=O)COc1ccc([N+](=O)[O-])cc1` gave VDR inhibitor -16.2%.
For COc1ccc(NC2=NC(C)(CO)CS2)cc1 (centres undefined) the results were VDR inhibitor -17.5%.
Screening O=c1cnc2cnc(Oc3cccc(Cl)c3)nc2n1CCc1ccccc1 returned VDR inhibitor -10.5%.
CCn1c(CCCc2ccc(OC)c(C)c2)n[nH]c1=S was read as VDR inhibitor -1.3%.
`O=C1Nc2ccccc2/C1=N/c1sc2c(c1C(=O)NCCc1ccccc1)CCCC2` gave VDR inhibitor -9.7%.
`CCOc1ccc(Nc2nc(Cc3nnc(SCC(N)=O)o3)cs2)cc1` gave VDR inhibitor 18.3%.
Screening CC(C#N)OC(=O)c1cccnc1SCC(=O)Nc1ccc2c(c1)OCO2 (centres undefined) returned VDR inhibitor -7.5%.
COc1ccc(/C(N)=N/OC(=O)c2cccs2)cc1 was read as VDR inhibitor -25.3%.
O=C(Nc1ccccc1C(=O)N1CCCCCC1)c1ccc(F)cc1 was read as VDR inhibitor 6.1%.
Screening C/C(=N\NC(=O)c1ccc2c(c1)OCO2)c1ccc(C(=O)O)s1 returned VDR inhibitor 0.6%.
For CCN1CCCC(CO)(Cc2ccccc2)C1 (centres undefined) the results were VDR inhibitor 8.2%.
O=C1NC[C@H](c2ccccc2)OC(=O)[C@H](Cc2ccc(F)cc2)C/C=C\C[C@@H]1CC(=O)N(CCO)Cc1ccccc1 was read as VDR inhibitor -25.8%.
For Cc1cccc(S(=O)Cc2ccc(C(=O)N3CCOCC3)o2)c1 (centres undefined) the results were VDR inhibitor -19.9%.
